PKD1 kinase inh – PKD1 (human) kinase inhibition; PKD1 kinase fluorescence polarization assay; inhibition, %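 (about 10 µM by stock and volumes)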; actives 0.056% (n = 200,000); AID 797;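 active means inhibition of 50% or more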;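 further: controls were vehicle for no effect and a reference inhibitor for full effect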
RGS16-Gao – modulates binding between human RGS16 and Galphao. O15492+P09471. bead-based flow cytometry RGS16-Galphao binding, fluorescence; actives lie on both sides. binding response (% of control), % at 10 µM. actives 0.38% (n = 220,000). AID 1441;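 active means below 25% or above 175%, edge rows of some plates excepted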;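 further: Galphao activated by GDP with aluminum fluoride before binding; 100% = wells without compound and 0% = beads without RGS; some results beyond the cut were filed as inactive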
Target sequence (O15492 whole entry, looked up): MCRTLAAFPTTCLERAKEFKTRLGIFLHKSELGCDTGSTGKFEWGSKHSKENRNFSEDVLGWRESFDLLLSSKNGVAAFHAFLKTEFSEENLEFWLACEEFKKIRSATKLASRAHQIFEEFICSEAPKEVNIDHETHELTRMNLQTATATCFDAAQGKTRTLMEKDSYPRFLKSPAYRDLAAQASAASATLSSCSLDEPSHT
Target sequence (P09471 whole entry, looked up): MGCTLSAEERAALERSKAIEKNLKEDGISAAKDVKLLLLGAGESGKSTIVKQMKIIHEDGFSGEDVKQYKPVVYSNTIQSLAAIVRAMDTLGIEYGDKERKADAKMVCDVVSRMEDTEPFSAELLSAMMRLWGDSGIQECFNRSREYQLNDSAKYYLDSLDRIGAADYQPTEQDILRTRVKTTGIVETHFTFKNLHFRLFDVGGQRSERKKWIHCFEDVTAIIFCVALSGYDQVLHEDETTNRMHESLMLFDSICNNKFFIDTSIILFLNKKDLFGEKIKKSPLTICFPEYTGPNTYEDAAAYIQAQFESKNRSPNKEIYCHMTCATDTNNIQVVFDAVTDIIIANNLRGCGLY
HSV augment – increases HSV replication in cells; HSV replication augmentation in cells, fold increase; maximum fold increase; actives 0.005% (n = 220,000);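 active means peak rise of 1.5-fold or more in the series; tested in PC3 cells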;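 further: first round at 10 µM; read as green reporter fluorescence; hits show the peak of a series up to 25 µM; 1 = signal of infected wells without compound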
GALR2 ag – agonists of human galanin receptor 2 (GALR2); O43603; activation, %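 (tested at 5 µM)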; AID 803; actives 0.48% (n = 140,000); GALR2-expressing cells, agonist activation read-out;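 active means above mean plus 3 SD of all compounds, about 5% in these data, not always enough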;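 further: 0% = vehicle buffer wells and 100% = reference agonist at full effect; tested in CHO reporter cells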
Target sequence (O43603 whole entry, looked up): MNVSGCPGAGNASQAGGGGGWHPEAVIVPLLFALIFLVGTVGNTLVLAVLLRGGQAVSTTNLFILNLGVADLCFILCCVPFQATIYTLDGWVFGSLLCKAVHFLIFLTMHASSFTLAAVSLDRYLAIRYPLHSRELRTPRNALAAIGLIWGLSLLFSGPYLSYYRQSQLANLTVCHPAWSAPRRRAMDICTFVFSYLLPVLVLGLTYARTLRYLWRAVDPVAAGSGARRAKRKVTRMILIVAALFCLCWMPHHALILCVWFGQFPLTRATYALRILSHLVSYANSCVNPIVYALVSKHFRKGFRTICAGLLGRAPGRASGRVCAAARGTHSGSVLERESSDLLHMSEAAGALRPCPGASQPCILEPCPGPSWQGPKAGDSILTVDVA
Insulin prom inh – TRM-6 insulin promoter activity inhibition. TRM-6 cells (human fetal islet line), insulin promoter-eGFP reporter, imaging; reporter expression induced with tamoxifen. inhibition, % at 2 µM. actives 0.9% (n = 130,000). AID 1273;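 active means inhibition above the mean plus 3 SD, with well images judged a real hit on visual review, cut at about 60% in these data, passing the limit was not always enough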
Insulin prom inh cell count – second read-out of Insulin prom inh, no call of its own (marks repeat the call); normalized cell count, %; measured here: cell count, toxicity; reference of the scale not given here;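 cells exposed to compound for 48 h; stained nuclei by imaging scaled within each plate; lower means fewer cells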
HSV augment primary fold – also measured in HSV augment; calls as there; fold increase; compound at 10 µM; measured here: primary screen fold increase 10 uM; tested in PC3 cells;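 GFP signal in the first replicate; 1 = infected wells without compound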
Starred values were filed as active, the others as inactive; i = inactive; x = no result given. Random draw from the library; 1.1% or so of the library scored in one or more.

structure | PKD1 kinase inh | RGS16-Gao | HSV augment | HSV augment primary fold | GALR2 ag | Insulin prom inh | Insulin prom inh cell count
O=Cc1ccc(OC(=O)c2cc(Cl)nc3ccccc23)cc1 | -10 | 105 | i | 1 | -0.8 | 40 | 102
CC(=O)NC(C)C(=O)OCC(=O)c1ccc(Cl)s1 (centres undefined) | 0 | 98 | i | 0.96 | -1.0 | 0 | 123
Cn1c(C(=O)N2CCCc3ccccc32)cc2sccc21 | -6 | 106 | i | 0.96 | -1.7 | x | x
COc1ccccc1N1CCN(c2cnccn2)CC1 | -9 | 100 | i | 0.86 | x | x | x
Cc1ccc(NC(=S)N(CCN(C)C)C(C)c2ccco2)cc1Cl (centres undefined) | x | 102 | i | 0.83 | x | x | x
CN(c1ccc2nc3ccccc3c(=O)n2n1)C1CCCCC1 | -1 | 99 | i | 1 | x | 7 | 99
COC(=O)c1ccc(CSc2nnc(-c3ccccc3)n2C)o1 | -5 | 114 | i | 0.95 | x | 0 | 79
CCOC(=O)N1CCC(NS(=O)(=O)c2ccc3c(c2)CCN3C(C)=O)CC1 | -1 | 107 | i | 1.1 | -0.6 | -23 | 99
C=CCc1ccc(OCCOCCOc2ccccc2[N+](=O)[O-])c(OC)c1 | 18 | 104 | i | 0.99 | -3.0 | 12 | 151
CCN(C(=O)C1CCCCC1)c1nnc(-c2cccnc2)s1 | -9 | 114 | x | x | 0.5 | -123 | 1
CCC(CO)NCC#Cc1ccccc1 (centres undefined) | 5 | 105 | i | 0.92 | x | x | x
O=C(Nc1c(-c2cccs2)nc2ccccn12)c1ccc2ccccc2c1 | -4 | 97 | i | 0.96 | 0.5 | x | x
O=C(Nc1ccc(CN2CCOCC2)cc1)c1ccc(-c2ccc(Br)cc2)o1 | 18 | 98 | i | 0.68 | -1.4 | -118 | 112
CCC(=O)Nc1ccc(Cl)c(NC(=O)c2cccnc2)c1 | -12 | 99 | i | 0.87 | -2.9 | -32 | 192
COc1n[nH]c(C(=O)Nc2cc(Cl)ccc2Cl)c1[N+](=O)[O-] | 1 | 98 | i | 0.9 | x | x | x

The list goes on:
structure | PKD1 kinase inh | RGS16-Gao | HSV augment | HSV augment primary fold | GALR2 ag | Insulin prom inh | Insulin prom inh cell count
Cc1ccc(CN2CCN(Cc3cccc(C)n3)CC2CCO)cc1 (centres undefined) | -1 | 89 | i | 1.1 | x | 33 | 95
COc1ccc(Cc2n[nH]c(=O)c3ccccc23)cc1OC | 8 | 91 | i | 0.74 | 1.2 | 0 | 72
O=C(Nc1cc(S(=O)(=O)N2CCCCC2)ccc1O)c1ccccc1NS(=O)(=O)c1ccc(F)cc1 | 3 | 93 | i | 0.83 | -1.1 | -43 | 107
CCCc1cc(=O)[nH]c(SCc2ccccc2)n1 | -5 | 101 | i | 0.7 | 1.0 | -20 | 98
CCN(CC)C(=O)CSc1nc2cc3c(cc2c(=O)n1CCCC(=O)NCc1ccc(OC)cc1)OCO3 | -2 | 103 | i | 0.88 | x | -43 | 99
COc1cccc(NC(=S)NNC(=O)c2ccccc2OC(F)F)c1 | -6 | 98 | i | 1 | -0.1 | x | x
Cc1nc(N2CCOCC2)[nH]c(=O)c1C | -9 | 101 | i | 0.94 | x | x | x
CCC(C)NC(=O)C(=O)NCc1ccncc1 (centres undefined) | -7 | 97 | i | 1 | -2.3 | x | x
CCOC(=O)c1c(C)oc2c1cc(O)c1ccccc12 | -5 | 101 | i | 0.95 | -0.3 | 55 | 102
O=C(N/N=C\c1cccnc1)C1c2ccccc2Oc2ccccc21 | -2 | 106 | i | 0.91 | x | -56 | 130
O=C(COC(=O)CCc1ccc(S(=O)(=O)N2CCCCC2)cc1)Nc1cccc2ccccc12 | -16 | 53 | i | 1.1 | -2.3 | -21 | 89
CNCc1ccccc1Sc1cccc2ccccc12 | 0 | 104 | i | 0.79 | -1.6 | -48 | 166
COc1ccccc1NC(=O)C(=O)NCc1ccncc1 | 1 | 104 | i | 1.1 | 1.0 | 33 | 128
COc1cc(C2Nc3ccccc3C(=O)N2NS(C)(=O)=O)ccc1O (centres undefined) | x | 103 | i | 0.85 | x | x | x
O=C(O)CC(NCc1ccco1)C(=O)Nc1cccc(O)c1 (centres undefined) | x | 100 | i | 0.93 | x | x | x

(next part)
structure | PKD1 kinase inh | RGS16-Gao | HSV augment | HSV augment primary fold | GALR2 ag | Insulin prom inh | Insulin prom inh cell count
CC(C)(C)CC(=O)Nc1nnc(C(F)(F)F)s1 | 6 | 98 | i | 0.9 | -2.4 | -10 | 119
O=C(CSC(=S)N1CCOCC1)Nc1nc(=O)c2ccccc2s1 | -12 | 78 | i | 1.1 | -0.3 | -23 | 73
O=C(OCCCc1ccncc1)c1ccc(S(=O)(=O)N2CCOCC2)cc1 | -11 | 95 | i | 0.96 | -2.4 | x | x
Cc1ccc2nc(Nc3nc(-c4ccccc4)cc(=O)[nH]3)nc(C)c2c1 | 3 | 101 | i | 0.78 | -3.2 | -30 | 98
O=C(Nc1ccc(F)cc1F)c1ccc(-n2cccn2)c([N+](=O)[O-])c1 | -2 | 97 | i | 0.89 | x | x | x
CC1CN(c2ncnc3c2c(-c2ccccc2)cn3-c2ccc(F)cc2)CC(C)O1 (centres undefined) | 0 | 93 | i | 0.87 | x | x | x
CC(C)N1CCN(Cc2nc3ccccc3s2)CC1CCO (centres undefined) | -5 | 103 | i | 1 | x | x | x
Oc1ccc(/C=N/Nc2cc(N3CCOCC3)nc(N3CCOCC3)n2)cc1O | 19 | 92 | i | 0.86 | -0.1 | -25 | 116
CN(C)CCNC(=O)C1CC(=O)N(c2ccc(F)c(Cl)c2)C1 (centres undefined) | -2 | 96 | i | 0.99 | -0.9 | -23 | 59
CCCC(NCC(O)COc1ccc(-c2ccccc2)cc1)c1ccccc1 (centres undefined) | -1 | 133 | i | 0.65 | x | -117 | 54
COC(=O)C1=C(C(=O)OC)C2(OC1c1ccc(Br)cc1)C(=O)c1ccccc1C2=O (centres undefined) | -8 | 91 | i | 1.1 | -3.4 | 20 | 191
COc1ccc(OCc2nn3c(-c4ccccn4)nnc3s2)cc1 | 3 | 104 | i | 1 | -1.7 | 19 | 91
COc1ccc(Sc2cnn(-c3ccccc3)c(=O)c2Cl)cc1 | -15 | 106 | i | 0.79 | -0.9 | x | x
O=C(NCc1ccco1)c1c(F)cccc1Cl | -4 | 101 | x | x | -1.1 | 23 | 127
CCOC(=O)C1=C(N)OC2=C(C(=O)CCC2)C1c1cccs1 (centres undefined) | 1 | 98 | i | 0.77 | -1.7 | 24 | 99

3 compounds from above, ordered by length of the SMILES, descending.
structure | PKD1 kinase inh | RGS16-Gao | HSV augment | HSV augment primary fold | GALR2 ag | Insulin prom inh | Insulin prom inh cell count
CCCC(NCC(O)COc1ccc(-c2ccccc2)cc1)c1ccccc1 (centres undefined) | -1 | 133 | i | 0.65 | x | -117 | 54
O=C(CSC(=S)N1CCOCC1)Nc1nc(=O)c2ccccc2s1 | -12 | 78 | i | 1.1 | -0.3 | -23 | 73
COc1ccc(OCc2nn3c(-c4ccccn4)nnc3s2)cc1 | 3 | 104 | i | 1 | -1.7 | 19 | 91

Following part.
structure | PKD1 kinase inh | RGS16-Gao | HSV augment | HSV augment primary fold | GALR2 ag | Insulin prom inh | Insulin prom inh cell count
CCCOC(=O)CSc1nc(N)c(C#N)c(CC)c1C#N | -12 | 64 | i | 0.79 | -3.1 | 29 | 110
COc1ccc(-n2nnnc2-c2cnc3cc4c(cc3c2C)OCO4)cc1 | -7 | 117 | i | 0.97 | -0.9 | x | x
CC(C)CCNC(=O)Cc1ccccc1[N+](=O)[O-] | -5 | 104 | i | 0.99 | -2.0 | -100 | 139
Cc1ccc(NNC(=O)c2ccno2)cc1Cl | x | 94 | i | 1.1 | x | x | x
COc1cc(OC)c(C2=NOC(C(=O)N3CCN(C(=O)c4ccco4)CC3)C2)cc1Cl (centres undefined) | -9 | 108 | i | 0.86 | x | x | x
CC(=O)NC(Cc1ccc(F)cc1)C(=O)NC1CCN(c2nnnn2-c2ccccc2)CC1 (centres undefined) | -13 | 105 | i | 0.83 | -0.8 | -272 | 49
COc1ccc(-n2nnnc2SCC(=O)c2ccc3c(c2)OCCO3)c(OC)c1 | -10 | 97 | x | x | -0.6 | x | x
Cc1ccc(N(C(=O)Cc2c[nH]c3ccccc23)C(C(=O)NC2CCCCC2)c2ccco2)cc1 (centres undefined) | -5 | 81 | i | 0.57 | -1.4 | 15 | 95
COC(=O)c1c(NC(=O)CN2CCN(S(=O)(=O)c3ccccc3[N+](=O)[O-])CC2)sc2c1CCC(C)C2 (centres undefined) | -1 | 107 | i | 0.96 | -1.5 | 15 | 135
Cc1cccc(N=CC=C2OC(C)(C)C(C)(C)O2)c1 | 3 | 102 | i | 1.1 | 0.3 | 17 | 133
CCOc1ccc(C2C(C(=O)O)c3ccccc3C(=O)N2CCN2CCOCC2)cc1 (centres undefined) | 5 | 99 | i | 0.99 | -0.6 | x | x
Cn1c(=O)c2c(nc(CN3CCCCC3)n2CCc2ccccc2)n(C)c1=O | -12 | 81 | i | 0.86 | -1.4 | 37 | 57
CCOC(=O)C1=c2s/c(=C\c3cccnc3)c(=O)n2C(N)=C(C(=O)OC)C1c1cccnc1 (centres undefined) | -2 | 109 | i | 0.83 | -3.4 | -3 | 96
Fc1ccc(C2=Nc3cccc4cccc(c34)N2)cc1 | 5 | 96 | i | 0.97 | x | x | x
CC(=O)c1c(C)[nH]c(C(=O)Nc2ccc(C)c(S(=O)(=O)N(C)C)c2)c1C | 1 | 106 | i | 0.97 | x | 25 | 125

Additional records:
structure | PKD1 kinase inh | RGS16-Gao | HSV augment | HSV augment primary fold | GALR2 ag | Insulin prom inh | Insulin prom inh cell count
Cc1nnc(SCC(=O)NCc2ccccc2)n1-c1ccccc1 | -1 | 103 | i | 1 | -1.0 | 29 | 160
Cc1ccc(NC(=S)N(CCN(C)C)C(C)c2cccnc2)c(C)c1 (centres undefined) | 1 | 101 | i | 0.95 | x | x | x
CCN(CC)c1ccc(NC(=O)c2cncc(Br)c2)cc1 | -4 | 94 | i | 0.97 | -3.2 | -48 | 104
O=C(CNC(=O)c1ccccc1)NCCO | -5 | 85 | i | 0.95 | x | -70 | 53
O=C(O)c1cc(-c2ccc(Cl)cc2)n[nH]1 | -2 | 99 | i | 0.96 | -1.3 | x | x
COc1ccc(-c2ccc3nnc(SCC(N)=O)n3n2)cc1 | 2 | 104 | i | 0.93 | x | 43 | 90
O=C(NCCc1ccccc1)c1ccc(Cl)c([N+](=O)[O-])c1 | 12 | 145 | i | 1.1 | -0.6 | -23 | 126
CCOC(=O)c1c(-c2ccccc2)csc1NC(=O)/C(C#N)=C/c1ccc(OC)c(OC)c1 | -6 | 107 | i | 1.1 | -1.6 | 3 | 114
O=[N+]([O-])c1cccc(-c2ccc(/C=N/n3c(-c4ccccc4)n[nH]c3=S)o2)c1 | -3 | 158 | i | 1.1 | 0.0 | x | x
CN1CCN(C(c2cccnc2)c2ccc3cccnc3c2O)CC1 (centres undefined) | 2 | 93 | i | 0.73 | -0.6 | -21 | 93
Cc1cc2c(cc1C)CSC(c1ccc(O)cc1)SC2 | -3 | 81 | i | 0.72 | 0.3 | 24 | 129
CCOc1cc(C2CC(=O)NC(SCC)=C2C#N)ccc1O (centres undefined) | 1 | 108 | i | 0.91 | -2.2 | x | x
COc1cccc(/C=N/N2CCN(C3c4ccccc4-c4ccccc43)CC2)c1O | x | 98 | i | 0.95 | x | x | x
CC(=Nc1ccccc1)C1=C(O)COC1=O | -8 | 50 | x | x | -0.6 | -7 | 77
Cc1ccc(S(=O)(=O)N(C)C)cc1-n1c(SCC(=O)Nc2ccc(F)cc2Cl)nc2ccccc2c1=O | -1 | 100 | i | 0.88 | -0.2 | 0 | 112
CC(C)(CN1CCN(C(c2ccccc2)c2ccccc2)CC1)NS(=O)(=O)c1ccccc1 | x | 101 | i | 1.1 | x | x | x
O=C(O)CCn1nnc(-c2cccs2)n1 | -7 | 95 | i | 0.98 | 0.5 | 0 | 90
O=C(N/N=C/c1ccc(-c2ccc(Br)cc2)o1)c1ccc2c(c1)OCO2 | -3 | 107 | i | 0.87 | x | -123 | 84

Limited to RGS16-Gao and HSV augment primary fold, for 4 of the compounds above:
smiles	RGS16-Gao	HSV augment primary fold
Cc1nc(N2CCOCC2)[nH]c(=O)c1C	101	0.94
COc1ccc(-n2nnnc2-c2cnc3cc4c(cc3c2C)OCO4)cc1	117	0.97
COc1ccc(Sc2cnn(-c3ccccc3)c(=O)c2Cl)cc1	106	0.79
Cc1ccc(NC(=S)N(CCN(C)C)C(C)c2cccnc2)c(C)c1 (centres undefined)	101	0.95

Bioassay records: PubChem, several laboratories
